Menin MLL FP FL – displaces fluorescein MLL peptide from human menin | 290,000 tested, under 10 active | Fluorescence polarization, fluorescein-MLL peptide displacement from menin | FP activity change, % at 61.4 µM; inconclusive = falling polarisation curve, or a change in total fluorescence; inactive = total fluorescence flat and polarisation flat or rising; no compound was filed as active; the % refers to the polarisation; negative = inhibition;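 also: % of control where 0% means no effect; inhibitors lower the polarisation; unlabelled MLL peptide was the positive control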
ClpP mod – qHTS Assay for Activators of ClpP | ATP-dependent Clp protease proteolytic subunit (Bacillus subtilis (strain 168)), P80244 | purified B. subtilis ClpP, FRET peptide cleavage, 20 min | Potency, µM (series often up to 57.5 µM), inactives show top-dose activity change, negative = active | 340,000 compounds, 1.9% hits; active = well fitted falling curve with a large enough effect; inconclusive = small, poorly fitted or top-dose-only effect; inactive = no such curve, though single readings can be large or run the other way; also: potency is read from the fitted curve at half-maximal effect; the source files actives as falling curves though it sought activators and does not explain the sign; nearly all actives have a fitted effect of over 65% in size; many hits overshoot -100%
Target sequence (P80244 whole entry, looked up): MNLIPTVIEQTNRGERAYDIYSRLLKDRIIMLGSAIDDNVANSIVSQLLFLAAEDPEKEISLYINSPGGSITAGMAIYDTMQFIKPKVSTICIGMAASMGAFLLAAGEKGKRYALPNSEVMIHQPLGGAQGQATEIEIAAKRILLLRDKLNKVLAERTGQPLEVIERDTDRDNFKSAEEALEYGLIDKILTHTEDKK
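FRET quenching reversal measured ClpP activation: 10 microg/mL B. subtilis ClpP at pH 8 with the FRET-FV decapeptide, read at 430 nm after 320 nm excitation. The 20-min minus 0-min signal was scaled between DMSO/no-enzyme wells and ADEP (5.8 microM final).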
PINK1 expr mod – modulators of PINK1 expression | PINK1 immunofluorescence, high-content cytometry, 24 h | AID 624263 | 410,000 compounds, 0.2% hits | Potency, µM (doses to about 76.6 µM), for inactives: at the top dose activation (PINK1 increase), usual class: activators; active = well fitted activation curve with a large enough effect; inconclusive = small, poorly fitted or top-dose-only effect; inactive = flat fitted curve, though single readings scatter; cell line not stated here;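 also: potency is read from the fitted curve at half-maximal effect; % of control where 0% means no effect; nearly all actives have a fitted effect of over 65% in size; a mitochondrial uncoupler was the plate control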
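Fluorescence from anti-PINK1 antibody, together with nuclear and cell stains, was scanned on a laser-scanning cytometer. Before staining, stable-line cells were incubated 24 hours with compounds at 5 concentrations; primary antibody 12 h at 10 degrees C.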
Sfp PPTase inh – inhibitors of Bacillus subtilis Sfp phosphopantetheinyl transferase; Q9F4F7; Biochemical Sfp PPTase activity, qHTS; Potency, µM, without a hit: max response, negative = inhibition, usual class: inhibitors; 310,000 compounds, 3.5% hits; AID 1490; active = well fitted inhibition curve with a large enough effect; inconclusive = small, poorly fitted or top-dose-only effect, or another doubt; inactive = no such curve, though single readings can be large or run the other way;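 also: the enzyme is Sfp with the accession as filed and its product quenches rhodamine fluorescence; potency is read from the fitted curve at half-maximal effect; 0% = enzyme reaction without inhibitor and -100% = no enzyme wells; top concentration of the series not given in the record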
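Buffer: 50 mM Hepes-Na pH 7.6, 10 mM MgCl2, 0.01% Nonidet P-40, 0.01% BSA. Enzyme 15 nM, pre-exposed to compound 15 min; substrates then added and fluorescence change tracked over 30 min.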
TRPV1 potentiator – enhances activation of the human vanilloid receptor TRPV1; Q8NER1; TRPV1-expressing cells, Fluo-8 calcium influx, capsaicin EC20 potentiation; host cell line not named in the record; control for the full effect not named in the record; potentiation, % at 8.33 µM; 320,000 compounds, 0.02% hits; active means potentiation above 80%; inconclusive means 30% to 80%; inactive means below 30%; also: 0% is about no effect
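Fluo-8 calcium influx in TRPV1-expressing cells, kinetic read (ex 480/em 520 nm). Compound added and read 3 min for agonist activity, followed by capsaicin at EC20 final and 2 min further read for enhancement.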
TRPML1 inh – blocks the human TRPML1 channel; Q9GZU1; TRPML1-inducible cells, Ca2+ dye fluorescence, FDSS; stronger effect = lower value; inhibition of EC80 agonist-evoked calcium signal; activity change, negative = inhibition, % (no concentration beside the values); 390,000 compounds, 0.02% hits; in the data active means activity change below about -50%; inconclusive means about -30% to -50%; inactive means above about -30%;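 also: stimulus is agonist 54-4 at its EC80 concentration; % is scaled to controls: 0 for no effect and ±100 for the full control effect; compound concentration not given in the record; the text of the record puts the active cut at -80%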
Target sequence (Q9GZU1 whole entry, looked up): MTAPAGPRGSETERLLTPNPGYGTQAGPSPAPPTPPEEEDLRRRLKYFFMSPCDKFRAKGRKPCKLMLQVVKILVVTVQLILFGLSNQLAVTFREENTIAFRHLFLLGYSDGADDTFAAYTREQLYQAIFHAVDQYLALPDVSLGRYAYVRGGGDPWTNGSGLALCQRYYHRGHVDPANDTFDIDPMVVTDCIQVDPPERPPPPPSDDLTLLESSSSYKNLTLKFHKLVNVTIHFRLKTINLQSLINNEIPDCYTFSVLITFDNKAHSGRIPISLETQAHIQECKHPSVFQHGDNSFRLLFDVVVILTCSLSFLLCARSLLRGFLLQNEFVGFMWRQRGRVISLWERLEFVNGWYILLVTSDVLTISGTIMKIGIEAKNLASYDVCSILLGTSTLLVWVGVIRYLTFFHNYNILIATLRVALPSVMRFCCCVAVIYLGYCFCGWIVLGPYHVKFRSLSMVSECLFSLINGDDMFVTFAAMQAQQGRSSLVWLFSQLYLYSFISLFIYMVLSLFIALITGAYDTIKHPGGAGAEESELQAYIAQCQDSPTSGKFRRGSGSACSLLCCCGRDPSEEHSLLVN
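Calcium fluorescence in TRPML1-DL cells induced overnight with Tet: a 110 s read after compound pin addition, then a 110 s antagonist read after challenge with 54-4 at 4 uM final (EC80).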
TRPML1 agonist – activates the human TRPML1 channel | Q9GZU1 | TRPML1-expressing cells, Ca2+ dye fluorescence, FDSS; host cell line not named in the record; reference of the full effect not given here | activation, % (test concentration not listed) | 410,000 compounds, 0.12% hits; in the data active = activation above about 50%; inconclusive = about 30% to 50%; inactive = below about 30%; also: 0% is about no effect; the text of the record puts the active cut at 80%
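Tetracycline-induced TRPML1-DL cells are seeded and incubated overnight before loading with a no-wash Ca2+ dye and quencher. Agonist activity is taken from the 110 s fluorescence read following compound pin-transfer on an FDSS, before EC80 54-4 challenge.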
Active calls of the source: *; ? = inconclusive; / = not tested or not shown; [ ] = another dose, or the depositor's remark.

SMILES	Menin MLL FP FL	ClpP mod	PINK1 expr mod	Sfp PPTase inh	TRPV1 potentiator	TRPML1 inh	TRPML1 agonist
Cc1cccc2nc(-c3ccccc3)nc(N[C@@H](CO)c3ccccc3)c12	1.9	?	?	0%	-21	8	1.5
CN1CCN(C(=O)C2=C[C@H](c3ccc(C(F)(F)F)cc3)C[C@H](OCc3ccc(CO)cc3)O2)CC1	-3.2	1.2%	-0.8%	-12%	-4	7	-0.2
O=C(NNC(=O)c1sc2cccc(Cl)c2c1Cl)NC1CCCCC1	3.5	-6.1%	1.1%	-12%	5	-10	-0.3
Cc1ccc(NC(=O)c2ccc3c(c2)OCCO3)cc1S(=O)(=O)Nc1cccc(Cl)c1	5.7	-4.1%	?	28%	2	0	0.8
Cc1ccccc1Cn1c2ccccc2c2cnn(CC(=O)NC3CCC(C)CC3)c(=O)c21 (stereo not given)	/	-1.8%	0.4%	/	/	-8	1.2
CC(C)c1ccc(OCC(=O)Nc2cccc(C(=O)Nc3ccccc3C(=O)O)c2)cc1	-4.4	-1.4%	-0.5%	31%[activator]	29	0	-0.1
CCOC(=O)c1c(C)n(C)c2ccc(OCC(O)CNC(CC)CO)cc12 (stereo not given)	1.3	-3.7%	-2.0%	-5%	-7	-13	1.6
CC1(Cc2ccccc2C#N)C(=O)Nc2cc(-c3ccccc3Cl)ccc21 (stereo not given)	/	1.6%	10%	/	/	/	0.4
Cn1c(=O)c2c(nc(NC(Cc3ccccc3)C(=O)O)n2Cc2ccccc2)n(C)c1=O (stereo not given)	7.1	-1.3%	3.1%	6%	14	-15	-0.1
Cn1c(C(=O)NCc2ccccc2Cl)cc2sc(Cl)cc21	/	-2.3%	4.2%	/	/	-16	0.6
Cc1ccc(SCC(=O)NC(=O)c2ccccc2Br)c(C)c1	/	1.2%	3.7%	/	/	1	2.7
CC(C)(C)C(=O)NCCCc1ccccc1	-0.9	-2.7%	1.8%	7%	-3	19	-0.1
COc1cc(-c2nnc(SCC(=O)N3CCCC3)o2)cc(OC)c1OC	-2.7	-2.0%	-0.9%	-13%	-7	1	-0.5
COc1ccc2[nH]c3c(=O)n(N)c(C)nc3c2c1	4.4	33%	1.1%	6%	9	16	1.8
CCOC(=O)c1sc(NC(=O)C(C)(C)C)cc1C	3.4	0.8%	5.9%	14%	18	-7	-0.8
CSc1nnc(-c2ccc(S(=O)(=O)N3CCOCC3)cc2)n1CC1CCCO1 (stereo not given)	-0.7	?	-4.2%	6%	-6	-4	1.1
CN(C)C(/C=C/Nc1cccc(Br)c1)=C(C#N)C#N	6.0	/	3.3%	-2%	0	-8	-0.5
Cc1ccc(-c2cc3nc4c(c(=O)n3[nH]2)CCCC4)cc1	/	?	10%	/	/	-13	-0.4
O=C(Nc1nnc(-c2ccco2)o1)c1ccc(S(=O)(=O)N2CCCCC2)cc1	/	3.1%	2.1%	/	/	6	0.1
CCNc1ccc(C(=O)OCC(=O)NC(C)c2ccccc2)cc1[N+](=O)[O-] (stereo not given)	8.5	1.0%	13%	25%	-5	9	0.5
Cn1c(SCC(=O)N2CCCC2=O)nc2ccccc21	-0.2	/	-0.6%	13%	6	-14	0.1
COc1c2c(c(C)c3c1C(=O)OC3)O[C@@]1(C)CC[C@@]3(O)C(C)(C)OC(=O)CC[C@]3(C)[C@H]1C2	-1.6	-0.9%	-0.8%	7%	2	8	-0.4
CCOC(=O)/C=c1\s/c(=C\c2ccc(C#N)cc2)c(=O)n1CC(=O)NCc1ccco1	3.1	/	3.2%	-20%	-1	-14	0.1
CSc1nnc(-c2ccco2)c(-c2ccco2)n1	1.1	-0.5%	-2.3%	10µM*	26	-2	-1.3
Cc1ccccc1N(Cc1nnc2n1CCCCC2)C(=O)Nc1ccccc1	3.1	2.2%	-2.8%	18%	26	-1	1.6
SMILES	Menin MLL FP FL	ClpP mod	PINK1 expr mod	Sfp PPTase inh	TRPV1 potentiator	TRPML1 inh	TRPML1 agonist
O=C(Nc1ccccc1F)c1ccc2ncsc2c1	-0.5	1.2%	1.6%	-12%	-30	11	-0.4
Cc1cc(C)cc(NC(=O)COC(=O)c2cccc(S(=O)(=O)N3CCCCC3)c2)c1	/	0.2%	-1.3%	/	18	13	1.6
COc1ccc(Cl)cc1NC(=S)N1CCCCCC1	-3.8	-0.2%	2.6%	8%	4	0	0.2
CC(C)CN1C(Nc2ccccc2)=NC[C@@H]1C	2.3	-2.4%	0.6%	12%	23	11	0.4
O=C(CSc1nc2c([nH]c3ccccc32)c(=O)n1-c1ccccc1F)Nc1cccc(Cl)c1	/	-26%	-1.5%	/	/	17	4.2
COc1ccccc1CC(=O)O/N=C(\N)c1cccc([N+](=O)[O-])c1	2.1	-2.3%	0.2%	12%	16	-15	2.0
CCCc1nc2sc(C(=O)OCC)c(N)c2c2c1COC(C)(C)C2	-1.7	259%	2.3%	3%	-1	-11	-0.8
CCC1CCCCN1S(=O)(=O)c1ccc(NC(=O)c2cccs2)cc1 (stereo not given)	6.5	-3.4%	-2.7%[38.3 µM]	20%	0	-15	1.8
CCC(=O)Nc1cc(-c2nc3ncccc3o2)ccc1Cl	0.1	/	1.4%	20%	8	-14	0.5
COc1ccc(CCNC(=O)NCCc2c[nH]c3ccccc23)cc1OC	1.3	-2.4%	2.7%	11%	12	13	-1.3
CCc1noc(C)c1C(=O)OCC(=O)NCc1ccccc1OC	/	-1.1%	-0.4%	/	-3	-8	-1.5
Cc1ccc(C(=O)Nc2ccon2)cc1S(=O)(=O)N1CCCCCC1	4.5	-0.5%	-0.5%[38.3 µM]	15%	10	5	0.5
COc1ccc(NC(=O)CCn2cnnn2)cc1	/	2.1%	0.7%	/	/	15	-0.9
COCC(=O)Nc1cc(C(=O)Nc2ccccc2)ccc1Cl	-5.5	/	/	0%	-18	/	/
CC(=O)N1CCOC12CCN(Cc1ccccc1)CC2	/	-1.0%	0.4%	/	/	-12	0.1
COc1ccc(N(CC(=O)NCCSCc2ccccc2Cl)S(C)(=O)=O)cc1Cl	2.3	-1.7%	1.7%	4%	12	-4	-0.5
O=Cc1ccc(Sc2ncccn2)o1	-1.8	/	1.5%	18%	0	7	0.7
CC(=O)Nc1ccc(NC(=O)c2cc(C)nn2-c2ccccc2)cc1	0.4	0.7%	23%[38.3 µM]	13%	-2	21	-0.9
CCOc1cc(/C=C2/SC(=S)N(C)C2=O)ccc1Oc1ccc([N+](=O)[O-])cc1[N+](=O)[O-]	?	/	/	18%	-1	/	/
CCOc1ccc(C(=O)Nc2c3c(nn2C(C)(C)C)CSC3)cc1OCC	-0.5	-3.4%	9.6%[38.3 µM]	-8%	-36	-15	0.7
CCN(CCn1cccn1)C(=O)c1ccc(OC2CCN(C(=O)CCOC)CC2)cc1	/	-2.3%	-0.4%	/	/	2	0.5
Nc1[nH][nH]c(=O)c1N=Nc1ccccc1	/	0.3%	-0.2%	/	/	0	0.0
CC(=C1C(=O)c2ccccc2C1=O)N1CCN(c2ccc(F)cc2)CC1	4.3	-1.2%	2.3%	5%	11	-2	-0.1
CCOc1ccc(NC(=O)CSc2nnc(C3CC3)n2C2CC2)cc1	/	-0.8%	1.3%	/	13	-11	2.7
CCC(=O)N1CCC(c2ccc(OC)cc2)=N1	2.9	-18%	-0.4%	-2%	-26	-1	6.0
SMILES	Menin MLL FP FL	ClpP mod	PINK1 expr mod	Sfp PPTase inh	TRPV1 potentiator	TRPML1 inh	TRPML1 agonist
COc1cc2c(cc1NC(=O)c1ccc(C(C)(C)C)cc1)CCCC2	-3.4	?	2.0%	-2%	-1	15	-1.1
COc1ccccc1OCCn1cc(C(=O)O)c2ccccc21	-2.0	/	-1.0%	-6%	-2	16	-0.8
Cc1ccc(SCC(=O)OCC(=O)N(C)CC(=O)Nc2ccc(F)cc2)cc1C	/	-1.6%	1.2%	/	-5	-4	-0.4
COc1ccc(NC(=O)CCNS(=O)(=O)c2cc(Br)ccc2Br)cc1S(N)(=O)=O	-2.7	/	-0.3%	13%	28	1	0.1
Cc1cc(C(=O)N2CCc3ccccc32)ccc1[N+](=O)[O-]	/	-0.4%	0.1%	/	/	-5	-0.6
CCCc1nnc(NC(=O)CCCN2C(=O)c3ccccc3C2=O)s1	7.5	-1.4%	-1.1%	12%	1	10	-0.9
Cc1ccccc1S(=O)(=O)c1cc(C#N)c(=O)[nH]c1N	-3.2	/	2.3%	-13%	3	16	0.4
Cc1ccc(NC(=O)C/C(N)=N/OC(=O)c2ccccc2)cc1	-3.1	1.5%	6.1%	13%	-6	2	1.1
COc1ccc(S(=O)(=O)Nc2ccc(S(=O)(=O)N3CCCCC3)cc2)cc1OC	0.7	0.4%	0.2%	8%	1	6	-0.8
O=C(Cn1cc(SCc2ccc(C(F)(F)F)cc2)c2ccccc21)N1CCCCC1	/	-1.5%	1.0%	/	/	13	-0.3
Cc1ccc(S(=O)(=O)N2CC(O)C[C@H]2C(=O)OCC(=O)N2CCN(c3ccc(F)cc3)CC2)cc1C (stereo not given in full)	/	1.6%	-0.5%	/	/	1	-0.2
CCCCCNC(=O)c1ccc2c(c1)nc(C)n2-c1cccc(C)c1	/	0.6%	0.6%	/	/	5	0.0
O=C(CCN1C(=O)/C(=C/c2ccc(F)cc2)SC1=S)Nc1cccnc1	2.3	/	7.7%	13%	5	-9	-0.3
O=C(CSc1ncnc2scc(-c3ccccc3)c12)N1CCN(c2ccccc2F)CC1	4.2	-5.9%	3.1%	-7%	-5	18	2.9
Cc1cc(F)ccc1NC(=O)c1sc2nc(-c3cccs3)ccc2c1N	/	3.6%	8.8%	/	/	9	2.5
COc1ccc(CC2(C)OC(c3ccncc3)=NN2C(C)=O)cc1 (stereo not given)	-0.2	-0.3%	0.6%	6%	0	-17	-0.1
Cc1cc(NC(=O)CSc2nc3c(sc4ccccc43)c(=O)n2CCc2ccccc2)n[nH]1	1.5	-8.6%	-0.8%[38.3 µM]	-5%	10	8	0.6
CC1Cc2cc(S(=O)(=O)N3CCN(c4ccc(Cl)cc4)CC3)ccc2N1C(=O)C1CC1 (stereo not given)	-0.3	-2.8%	1.6%	14%	11	11	2.7

High-throughput results from PubChem.

Hits appear at their usual frequency; 4.4% or so of the library scored in one or more.
